Assay outcomes: PubChem BioAssay, National Center for Advancing Translational Sciences (NCATS)
Menin MLL FP FL: qHTS Assay for Inhibitors Targeting the Menin-MLL Interaction in MLL Related Leukemias: Competition With Fluorescein Labeled MLL-derived Peptide; Fluorescence polarization, fluorescein-MLL peptide displacement from menin; FP activity change, % at 61.4 µM; 290,000 tested, under 10 active; inconclusive = falling polarisation curve, or a change in total fluorescence; inactive = total fluorescence flat and polarisation flat or rising; no compound was filed as active; the % refers to the polarisation; negative = inhibition;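 further: % of control where 0% means no effect; inhibitors lower the polarisation; unlabelled MLL peptide was the positive control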
Sfp PPTase inh: qHTS Assay for Inhibitors of Bacillus subtilis Sfp phosphopantetheinyl transferase (PPTase); 4'-phosphopantetheinyl transferase ffp (Bacillus subtilis), Q9F4F7; Biochemical Sfp PPTase activity, qHTS; Potency, µM, for inactives: max response, negative = inhibition, actives largely listed as inhibitors; 310,000 tested, 3.5% active; active means well fitted inhibition curve with a large enough effect; inconclusive means small, poorly fitted or top-dose-only effect, or another doubt; inactive means no such curve, though single readings can be large or run the other way;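 further: the enzyme is Sfp with the accession as filed and its product quenches rhodamine fluorescence; potency means the concentration at half of the fitted maximal effect; 0% = enzyme reaction without inhibitor and -100% = no enzyme wells; top concentration of the series not given in the record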
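Sfp 15 nM + cpd, 15 min RT; start w/ rhodamine-CoA 5 uM, BHQ-2-YbbR 12.5 uM (final); 50 mM Hepes pH 7.6, 10 mM MgCl2, 0.01% NP-40, 0.01% BSA; read 525/598 nm at 0 and 30 min.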
CtBP-E1A blk: qHTS Assay for Inhibitors of the CtBP/E1A Interaction | CtBP / adenovirus E1A interaction (AlphaScreen) | AlphaScreen GST-E1A/His-CtBP binding, 1536-well; stronger effect = lower value; control for the full effect not named in the record | activity change, % (test concentration not listed) | 340,000 tested, 0.49% active; in the data active means activity change below about -65%; inconclusive means about -30% to -65%; inactive means above about -30%; further: on the % scale 0 is the no-effect control and ±100 the full control effect; compound concentration not given in the record
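Homogeneous bead-based format: GST-tagged E1A captured on glutathione donor beads, His-tagged CtBP on nickel acceptor beads; compounds precede bead addition by 2 h at 37 °C.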
TRPV1 potentiator: HTS Assay for Compounds that Act as Potentiators of the Vanilloid Receptor 1. potentiation, % at 8.33 µM. Transient receptor potential cation channel subfamily V member 1 (Homo sapiens), Q8NER1. TRPV1-expressing cells, Fluo-8 calcium influx, capsaicin EC20 potentiation; host cell line not named in the record; control for the full effect not named in the record. AID 540277, 2011. 320,000 tested, 0.02% active; active means potentiation above 80%; inconclusive means 30% to 80%; inactive means below 30%; further: 0% is about no effect
Target sequence (Q8NER1 whole entry, looked up): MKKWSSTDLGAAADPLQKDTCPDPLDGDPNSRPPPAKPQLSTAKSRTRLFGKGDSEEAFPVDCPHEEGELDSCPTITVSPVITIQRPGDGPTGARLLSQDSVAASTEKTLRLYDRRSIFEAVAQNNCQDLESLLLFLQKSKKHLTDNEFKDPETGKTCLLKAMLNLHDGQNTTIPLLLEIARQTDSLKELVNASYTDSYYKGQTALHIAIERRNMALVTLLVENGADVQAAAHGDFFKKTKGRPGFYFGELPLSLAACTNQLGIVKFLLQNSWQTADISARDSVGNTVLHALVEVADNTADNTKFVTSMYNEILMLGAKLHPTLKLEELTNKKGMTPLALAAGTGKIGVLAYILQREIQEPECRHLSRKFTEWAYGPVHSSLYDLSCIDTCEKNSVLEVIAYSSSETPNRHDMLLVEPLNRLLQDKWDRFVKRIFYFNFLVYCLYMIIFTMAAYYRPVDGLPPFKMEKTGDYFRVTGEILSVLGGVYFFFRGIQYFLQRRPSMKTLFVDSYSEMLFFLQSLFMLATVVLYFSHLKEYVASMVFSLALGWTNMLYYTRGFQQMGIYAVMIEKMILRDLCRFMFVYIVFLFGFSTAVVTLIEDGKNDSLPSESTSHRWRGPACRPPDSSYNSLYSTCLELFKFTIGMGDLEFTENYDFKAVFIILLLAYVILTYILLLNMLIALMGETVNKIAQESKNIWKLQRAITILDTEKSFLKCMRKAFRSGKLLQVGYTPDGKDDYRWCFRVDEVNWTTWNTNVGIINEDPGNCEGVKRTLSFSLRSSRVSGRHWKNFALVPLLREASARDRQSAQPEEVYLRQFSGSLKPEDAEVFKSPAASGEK
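Fluo-8 calcium influx in TRPV1-expressing cells, kinetic read (ex 480/em 520 nm). Compound added and read 3 min for agonist activity, followed by capsaicin at EC20 final and 2 min further read for enhancement.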
ClpP mod: qHTS Assay for Activators of ClpP; 340,000 tested, 1.9% active; Potency, µM (series often up to 57.5 µM), for inactives: top-dose activity change, negative = active; AID 651965, 2013; purified B. subtilis ClpP, FRET peptide cleavage, 20 min; ATP-dependent Clp protease proteolytic subunit (Bacillus subtilis (strain 168)), P80244; active = well fitted falling curve with a large enough effect; inconclusive = small, poorly fitted or top-dose-only effect; inactive = no such curve, though single readings can be large or run the other way; further: potency means the concentration at half of the fitted maximal effect; the source files actives as falling curves though it sought activators and does not explain the sign; nearly all actives have a fitted effect of over 65% in size; many hits overshoot -100%
Target sequence (P80244 whole entry, looked up): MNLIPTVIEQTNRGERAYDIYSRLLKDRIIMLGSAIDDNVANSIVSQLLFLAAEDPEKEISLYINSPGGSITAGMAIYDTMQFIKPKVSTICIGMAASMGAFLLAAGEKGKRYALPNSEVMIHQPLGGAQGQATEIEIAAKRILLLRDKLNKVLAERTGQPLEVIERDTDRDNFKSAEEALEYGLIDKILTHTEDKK
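Purified B. subtilis ClpP, 10 microg/mL final in Tris/HCl pH8 with KCl, BSA, glycerol and Tween-20, cleaved an Abz/nitrotyrosine-quenched decapeptide. Fluorescence (ex 320, em 430) was read at 0 and 20 min at room temperature. Delta was normalized to 5.8 microM ADEP and DMSO/no-enzyme controls.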
gsp agonist: qHTS for Agonist of gsp, the Etiologic Mutation Responsible for Fibrous Dysplasia/McCune-Albright Syndrome: qHTS. gsp mutant cells, cAMP HTRF, 30 min; control for the full effect not named in the record. Potency, µM (highest dose often 76.9 µM), for inactives: top-dose activation (cAMP increase), most hits filed as activators. 340,000 tested, 0.13% active. AID 624287, 2012; active = well fitted activation curve with a large enough effect; inconclusive = small, poorly fitted or top-dose-only effect, or another doubt; inactive = no such curve, though single readings can be large or run the other way; cell line not stated here;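 further: phosphodiesterase inhibitor Ro 20-1724 added with compounds to block cAMP breakdown; potency means the concentration at half of the fitted maximal effect; nearly all actives have a fitted effect of over 60% in size; about a fifth of the inactives were tested at one dose only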
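Cells in DMEM/10% FBS with G418 were pretreated with compounds in DMSO plus […] (300 uM stock) for 30 min at 37C. cAMP was measured by HTRF (cAMP-d2 plus anti-cAMP antibody-K) after 30 min at room temperature.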
gsp antagonist: qHTS for Antagonists of gsp, the Etiologic Mutation Responsible for Fibrous Dysplasia/McCune-Albright Syndrome: qHTS. gsp-mutant cells, cAMP HTRF, 30 min; control for the full effect not named in the record. 340,000 tested, 0.4% active. Potency, µM (titrated, usually from 76.9 µM), inactives show top-dose activity change, negative = inhibition, hits mostly inhibitors; active = falling curve of any shape with a large fitted effect; inconclusive = falling curve, mostly with a smaller effect; inactive = flat or rising curve; cell line not stated here;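 further: intracellular cAMP measured with PDE inhibitor Ro 20-1724 present during compound exposure; potency means the concentration at half of the fitted maximal effect; on the % scale 0 is the no-effect control and ±100 the full control effect; nearly all actives have a fitted effect of over 65% in size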
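Measurement of cellular cAMP by homogeneous time-resolved fluorescence following a 30 min compound exposure at 37C. The PDE inhibitor […] was present throughout; the assay buffer was DPBS with 0.05% BSA and 0.005% Tween 20.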
* = called active by the depositor; ? = inconclusive; / = not tested or not shown; [ ] = another dose, or the depositor's remark.

SMILES | Menin MLL FP FL | Sfp PPTase inh | CtBP-E1A blk | TRPV1 potentiator | ClpP mod | gsp agonist | gsp antagonist
O=C(CN1CCN(C(=O)C2COc3ccccc3O2)CC1)Nc1ccccc1 (stereo not given) | 2.3 | -7% | 0 | / | -1.2% | -57%[inhibitor] | -7%
COCc1c(C(=O)N2CCc3ccccc32)oc2ccccc12 | 1.2 | -12% | 36 | -18 | / | ? | -20%
COC(=O)C1=C(C(=O)OC)C(c2cc([N+](=O)[O-])ccc2O)c2sc(=O)[nH]c2S1 (stereo not given) | 0.7 | 45µM* | 8 | 4 | 2.4% | ? | 7%
CCOC(=O)C(=CNNc1cccc(Cl)c1)C(=O)OCC | 2.4 | ? | 0 | -30 | -2.1% | 1%[15.4 µM] | 2%
CN(C(=O)c1ccc(NC(=O)Cc2ccc(NC(=O)C3CCCN(C(=O)C4CCCCC4)C3)cc2)cc1)C1CC1 (stereo not given) | / | / | 7 | 11 | 0.1% | / | -4%
COc1cccc(-c2nn(C)c3sc(C(=O)N4CCN(c5ccccc5)CC4)cc23)c1 | 1.1 | -10% | ? | 7 | -17% | 14% | 2%
CNC(=O)Cc1nc2ccccc2n1CC(=O)Nc1cc(C)cc(C)c1 | 1.5 | 3% | -3 | 8 | -5.2% | -13% | -9%
O=C(CN1C(=O)NC2(CCCC2)C1=O)OCc1ccc(Br)cc1 | / | / | 2 | ? | / | -6%[15.4 µM] | 4%
CCOC(=O)c1c(CN2CCN(CC#N)CC2)n(C)c2cc(Br)c(OC)cc12 | 1.1 | -7% | 0 | 28 | / | -15% | -5%
Cn1c(=O)c2c(nc3n2CC(O)CN3c2ccccc2)n(C)c1=O (stereo not given) | / | / | -26 | / | -24% | -3%[15.4 µM] | 0%
COc1ccc(-c2nn(-c3ccccc3)cc2C(=O)Nc2ccc(C(=O)O)cc2)cc1OC | -6.8 | -1% | -8 | 3 | / | -9%[15.4 µM] | -10%
COc1cc(NC(=O)C/C(C)=N/NC(=O)c2cccc(O)c2)c(OC)cc1Cl | -0.4 | 20% | ? | 13 | -6.8% | 3% | -18%
CN(C)CCCN(C(=O)c1ccco1)c1nc2ccc(Cl)cc2s1 | 0.0 | -7% | -7 | -9 | / | -4%[15.4 µM] | 23%
O=C(NCCN1CCCC1)c1ccc(Cn2c(=S)[nH]c3ccc(Br)cc3c2=O)cc1 | 0.2 | -1% | -14 | 1 | / | -3%[15.4 µM] | -40%
CCC1CCc2c(sc(NC(=O)c3cnccn3)c2C(N)=O)C1 (stereo not given) | 3.3 | 10µM* | 3 | 2 | / | 3% | 11%
CN(CC(=O)Nc1cccc(F)c1)C(=O)c1ccc(-n2cncn2)c([N+](=O)[O-])c1 | / | / | 6 | 12 | -10% | 4%[15.4 µM] | 12%
Cc1ccnc(NC(c2ccccc2)c2ccc3cccnc3c2O)c1 (stereo not given) | / | / | -88* | / | / | ? | -3%
Cc1oc(-c2ccccc2Cl)nc1CN1CCCN(C(=O)c2ccco2)CC1 | -0.1 | 18% | / | ? | -0.1% | -6% | 1%
COc1ccc(/C=N/n2cncn2)cc1Cn1nc(C)c([N+](=O)[O-])c1C | 1.3 | -1% | 12 | 0 | -1.3% | 6%[15.4 µM] | -19%
Cc1[nH]c2ccccc2c1N=Nc1ccccc1C(=O)O | 13 | ? | ? | 4 | -2.2% | -18% | -11%
CC1CCCCC1NC(=O)CNC(=O)c1ccco1 (stereo not given) | / | / | 12 | -4 | -1.0% | -10% | 1%
COc1ccc(/C=C/C(=O)Nc2c(C(=O)O)[nH]c3ccccc23)cc1OC | 1.4 | 10% | -10 | -1 | 2.5% | -5% | 9%
CCCCC(CCC(=O)O)(C(=O)OCC)c1csc(Nc2ccccc2)n1 (stereo not given) | 3.0 | 14% | 5 | 0 | / | 27%[15.4 µM] | -5%
Clc1ccc2[nH]c3c(NCC4CCCO4)ncnc3c2c1 (stereo not given) | 1.9 | -11% | / | -8 | / | / | /
Cc1noc(C)c1S(=O)(=O)N1CCCCC1 | 3.1 | 10% | 55 | -3 | 2.5% | -2% | 2%
COc1ccc(C(CNC(=O)c2ccc(S(=O)(=O)Nc3ccccc3OC)cc2)N2CCCC2)cc1 (stereo not given) | / | / | 1 | / | 0.1% | -13% | 0%
O=C(CCC(=O)N1CCSc2ccccc21)NCc1ccc(Cl)cc1 | 0.0 | 8% | 0 | -32 | -0.8% | 31% | -4%
CC(C)(O)c1cc2ccc(C#Cc3ccsc3)cc2c(=O)o1 | / | / | 2 | -7 | 4.4% | -3% | -2%
CCOC(=O)c1c(C)[nH]c(C)c1S(=O)(=O)NCc1ccc(OCC)cc1 | 0.4 | 10% | 7 | 8 | 0.2% | 23% | -4%
CCN(CC)S(=O)(=O)c1cccc(NC(=O)CSc2nnc(N)s2)c1 | 1.2 | 14% | -5 | -9 | / | 36%[15.4 µM] | 11%
Cc1ccc(SCc2[nH]nc3c2C2(CCSCC2)C(C#N)=C(N)O3)cc1 | 0.0 | -6% | 8 | 3 | 0.9% | -36%[inhibitor] | -14%
Cc1cc(C)c(OCC(=O)OCC(=O)NCc2ccco2)c(C)c1 | / | / | -7 | / | 2.5% | -31%[inhibitor] | /
O=C(c1ccccc1)N1CCCC(C(=O)N2CCCCCC2)C1 (stereo not given) | -0.6 | -8% | 0 | ? | -0.2% | -9% | -4%
Cc1csc(SCC(=O)Nc2ccc(CC#N)cc2)n1 | / | / | 20 | / | 1.0% | -203%[inhibitor] | /
O=C(CC(CC(=O)c1ccccc1)c1ccccc1)c1ccccc1 | 0.5 | 13% | / | 5 | 0.3% | -17% | -26%
CN1C[C@@H]2[C@@H]3C(=O)N(Cc4ccccc4)C(=O)[C@@H]3[C@](Cc3ccccc3)(C1=O)N2C(=O)c1ccc(Br)cc1 | / | / | 5 | / | 0.8% | / | -5%
C=CCNC(=S)N/N=C(\C)c1cccc(NC(C)=O)c1 | 1.3 | 50µM* | / | 15 | 2.0% | 21% | -4%
CC(=O)OC(C(=O)NC1CCCCC1)c1cccc(C)c1 (stereo not given) | -2.1 | 13% | 7 | -16 | -27% | -81%[inhibitor] | 5%
O=C(O)c1ccn(Cn2cnc3ccccc32)n1 | -2.3 | -1% | -2 | -5 | -1.9% | 11% | 4%
O=C(N1CCCC1)N1CCN(c2ncnc3c(-c4ccc(Cl)cc4)nsc23)CC1 | 1.0 | 2% | / | 13 | / | / | /
Cc1ccc2nc(SCC(=O)Nc3cc(C(C)(C)C)nn3-c3ccccc3)[nH]c2c1 | -3.2 | 23% | -8 | -3 | 0.0% | -3% | -10%
CC(=Nc1cccc(C)c1)c1sc2ccccc2c1O | ? | -5% | 6 | -16 | -0.2% | -6% | -18%
COc1ccccc1NC(=S)NCC1CCC(CNC(=S)Nc2ccccc2OC)CC1 (stereo not given) | -1.1 | 24% | 0 | -12 | / | 3% | 0%
COC(=O)/C=C1\SC(N2CCOCC2)=C(c2ccc(OC)cc2)C1=O | -0.7 | -86% | 9 | 2 | 0.6% | 7% | -6%
O=C(COc1ccc(F)cc1Cl)Nc1cccc(S(=O)(=O)N2CCCC2)c1 | / | / | 5 | -5 | -0.1% | 3% | -3%
COCCn1c(C)cc(C(=O)COC(=O)c2n[nH]c3ccccc23)c1C | 1.2 | 3% | -28 | 14 | -2.5% | 22% | 4%
COC(=O)c1cc(NC(=O)c2ccccc2)c(=O)oc1/C=C/Nc1ccc(Oc2ccccc2)cc1 | ? | 16% | 23 | 5 | / | 15%[15.4 µM] | -5%
CCC1(C)Cc2c(sc3nc(SC)nc(N)c23)CO1 (stereo not given) | -2.6 | 11% | -3 | -3 | -3.0% | 1% | -10%
COc1ccccc1NC(=O)CN1CCN(C(=O)C2CCCO2)CC1 (stereo not given) | -0.1 | 11% | 8 | -2 | -0.8% | 12% | 17%
Cc1cccc(C(=O)NCCc2nnc(SCC(=O)Nc3nc(C)cs3)n2C)c1 | 2.4 | 14% | 3 | 10 | 2.0% | -6% | -1%
CC(=O)c1ccc(S(=O)(=O)NCCc2csc(-c3cccnc3)n2)cc1 | -1.0 | 3% | -3 | -1 | -2.3% | 7% | 8%
O=C(CCS(=O)(=O)c1ccc(Cl)cc1)OCC(=O)N1CCCCC1 | 3.7 | 12% | -5 | 17 | -1.3% | -4% | 4%
O=C(NCC(c1cccs1)N1CCOCC1)c1ccc(Cl)nc1 (stereo not given) | / | / | -5 | 4 | 0.4% | -4% | 0%
COc1ccc(-n2nc(C(=O)NCC(=O)N3CCCC3)c3ccccc3c2=O)cc1Cl | 3.8 | 33%[activator] | 2 | -4 | / | -8% | -15%
CC1CN(C(=O)COC(=O)c2c(Cl)cccc2Cl)CC(C)O1 (stereo not given) | 6.2 | 1% | 0 | -2 | / | 18% | 0%
O=C(/C=C/c1cc2ccccc2o1)c1ccccc1O | 0.8 | 1% | 3 | -7 | / | 9%[15.4 µM] | -3%
CC(C)CCNC(=O)Cn1c2c(c(-c3ccccc3Cl)cc1=O)CCC2 | 2.1 | -19% | 1 | / | 4.1% | ? | -15%

Printed as active in CtBP-E1A blk, of those listed so far:
mol	Menin MLL FP FL	Sfp PPTase inh	CtBP-E1A blk	gsp agonist	gsp antagonist
Cc1ccnc(NC(c2ccccc2)c2ccc3cccnc3c2O)c1 (stereo not given)	/	/	-88*	?	-3%
